From PubChem
GLA inh pH 4.5: inhibitors of human alpha-galactosidase A at pH 4.5. P06280. purified enzyme, 4-MU-alpha-Gal fluorescence, pH 4.5. activity change, negative = inhibition, % at 105 µM. 230,000 tested, under 10 active. AID 1467; inconclusive = small, poorly fitted or top-dose-only inhibition, or a rising curve; inactive = flat fitted curve, though single readings scatter; no compound was filed as active;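 also: 0% = full activity with enzyme and -100% = basal without enzyme; dose as in the result columns while the protocol names 77 µM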
Target sequence (P06280 whole entry, looked up): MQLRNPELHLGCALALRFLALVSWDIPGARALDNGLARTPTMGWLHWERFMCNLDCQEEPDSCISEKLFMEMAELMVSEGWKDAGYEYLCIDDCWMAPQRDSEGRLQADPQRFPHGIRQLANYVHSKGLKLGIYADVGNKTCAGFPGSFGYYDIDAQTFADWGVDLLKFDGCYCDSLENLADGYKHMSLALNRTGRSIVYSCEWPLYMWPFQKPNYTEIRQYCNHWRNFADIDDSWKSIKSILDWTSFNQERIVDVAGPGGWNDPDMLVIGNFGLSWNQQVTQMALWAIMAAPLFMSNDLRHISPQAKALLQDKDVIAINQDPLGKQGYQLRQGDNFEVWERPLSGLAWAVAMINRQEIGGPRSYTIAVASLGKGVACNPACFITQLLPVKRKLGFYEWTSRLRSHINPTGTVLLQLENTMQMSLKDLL
miR-21 FLuc: raises the signal of a miR-21 reporter. HeLa miR-21 FLuc reporter, luciferase, 48 h. Potency, µM (series often up to 38.3 µM), for the others: at the top dose reporter change, positive = more light. 340,000 tested, under 10 active. AID 2288; active = well fitted rising curve with a large enough effect; inconclusive = small, poorly fitted or top-dose-only effect; inactive = no such curve, though single readings can be large or run the other way;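 also: % of control where 0% means no effect; miR-21 action dims this reporter so a rising signal means less miR-21 action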
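HeLa cells stably expressing CMV-driven firefly luciferase with a downstream miR-21 binding sequence, endogenously expressing miR-21, were treated with titrations (up to about 40uM final) for 48 hours at 37 degree Celsius. Luciferase luminescence was read after lysis.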
Rango release inh: inhibitors of RanGTP-induced Rango-importin beta complex dissociation. O95149+P62826. 340,000 compounds, 0.071% hits. Biochemical FRET Rango-importin beta, RanGTP-induced dissociation. Potency, µM (top dose mostly 46.1 µM), for inactives: top-dose activity change, negative = inhibition; active means falling FRET ratio curve, often poorly fitted, with flat reads before Ran was added; inconclusive means other falling curves, or compound fluorescence or quenching; inactive means flat or rising ratio curve;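 also: potency is read from the fitted curve at half-maximal effect; % of control where 0% means no effect; nearly all actives have a fitted effect of over 45% in size; -100% = wells without RanGTP and RCC1; the record marks most hits as doubtful in a second field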
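Rango (0.1 uM)–importin beta (0.25 uM) complex; RanGTP-RCC1 trigger; 45 min RT; CFP/YFP FRET read.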
Rango-impB inh: Rango-importin beta binding inhibition; Potency, µM (titrated, usually from 92.2 µM), for the others: at the highest dose inhibition of complex formation; AID 540263; Rango CFP/YFP FRET sensor + importin beta, 45 min; 340,000 compounds, 0.031% hits; active = rising FRET ratio curve, often small or poorly fitted; inconclusive = mostly compound fluorescence or quenching in the first reads; inactive = flat curves in all reads;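 also: potency is read from the fitted curve at half-maximal effect; 0% = DMSO wells and 100% = buffer wells lacking importin beta; nearly all actives have a fitted effect of over 15% in size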
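FRET biosensor Rango (snurportin 1 IBB between N-terminal EYFP and C-terminal Cerulean), 50 nM in PBS/1 mM DTT/0.02% Tween-20/0.1% BSA, preincubated 5 min RT with compound; 0.125 microM importin beta added, 45 min RT, CFP/YFP FRET ratio read.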
The depositor's hits bear a star; ? = inconclusive; / = no result given.

SMILES	GLA inh pH 4.5	miR-21 FLuc	Rango release inh	Rango-impB inh
Cc1cc(C)n2nc(C(=O)Nc3cccnc3)nc2n1	-8	-7%	-3%	-1.8%
Cc1ccc2c(c1C)OC(=O)CC2c1ccccc1 (configuration not stated)	/	0%	-21%	2.4%
COc1ccc(-c2oc(=O)c3cc(OC)c(OC)cc3c2C(F)(F)F)cc1	/	/	8%	2.3%
CCOc1ccc(S(=O)(=O)N/N=C(\C)c2ccc(Cl)c(Cl)c2Cl)cc1	0	-1%	0%	-0.5%
CC(=O)Nc1ccc(S(=O)(=O)NNC(=O)c2cc3c4ccccc4n(C)c3s2)cc1	8	-3%	-19%	4.0%
CC(C)N1CCN(Cc2cccn2-c2cccnc2)CC1CCO (configuration not stated)	6	-1%	-6%	3.0%
CCCCc1nnc(NC(=O)C2=COCCO2)s1	/	-38%	-14%	-1.6%
CC(C)C(=O)Nc1cccc(-c2cn3ccccc3n2)c1	-14	-48%	-15%	-0.2%
CN1C(=S)SC(C)(C)C1/[N+]([O-])=C/c1cccnc1 (configuration not stated)	-11	-1%	-8%	-0.2%
Cc1sc(NC(=O)C2C3CCC(O3)C2C(=O)O)nc1-c1ccc(CC(C)C)cc1 (configuration not stated)	-9	-73%	10%	1.1%
Cc1ccc(N/C(C(Cl)=C(Cl)Cl)=C(/Cl)[N+](=O)[O-])c(C)c1	-3	0%	0%	4.7%
Cc1cc(NC(=O)c2ccccc2NS(=O)(=O)c2c(C)c(C)cc(C)c2C)no1	12	-6%	-12%	-1.7%
Cc1ccc(C(=O)N2CCC(C(=O)c3ccc(F)cc3)CC2)cc1	/	/	-13%	0.8%
CCOC(=O)N1CCN(C(=O)Cc2cccs2)CC1	0	-1%	13%	0.1%
Cc1c(C(=O)N(C)C(C)c2ccccn2)oc2c(F)cccc12 (configuration not stated)	/	-57%	6%	3.8%
CC(Oc1ccc(Cl)cc1)c1ccc(C#N)c(=O)[nH]1 (configuration not stated)	2	-5%	-7%	?
Cc1cc(-c2ccc(C(C)C)c(S(=O)(=O)N3CC(=O)Nc4ccccc43)c2)on1	/	-3%	7%	2.9%
CC(=O)c1ccc(CCCc2ccc(C(C)=O)cc2)cc1	/	/	3%	-4.1%
Cc1ccc(C)c(S(=O)(=O)N2CCN(C(C(=O)Nc3ccc(F)cc3)c3ccccc3)CC2)c1 (configuration not stated)	-6	4%	-17%	0.4%
O=C(c1ccc2[nH]c(=O)c(=O)[nH]c2c1)N1CCN(Cc2ccccc2)CC1	/	-1%	-16%	-2.0%
CCNC(=O)C1CCCc2c1[nH]c1ccc(Cl)cc21 (configuration not stated)	-11	-1%	4%	-0.5%
Cn1c(=O)c2[nH]c(CN3CCN(Cc4ccccc4)CC3)nc2n(C)c1=O	-6	1%	-2%	-0.8%
O=C(COc1cccnc1[N+](=O)[O-])N1CCC(Cc2ccccc2)CC1	/	/	-5%	-1.7%
COc1ccc(NC2=C(C(C)=O)C(c3ccc(OC)c(OC)c3)C(C(C)=O)C(C)(O)C2)cc1 (configuration not stated)	1	-26%	-9%	?
Cc1ccc2nc(Cl)c3nnnn3c2c1	11	0%	-7%	-0.1%
O=c1[nH]c(SCc2cccc(Cl)c2)nc2c1CCCC2	8	-8%	-7%	-0.1%
O=c1[nH]c(C2CCCN(S(=O)(=O)c3ccccc3F)C2)nc2c1nnn2Cc1ccccc1Cl (configuration not stated)	/	-2%	19%	-1.3%
CCOC(=O)Nc1oc2ccccc2c(=O)c1CN1CCOCC1	-1	-18%	?	?
Cc1nc2cnccc2n1C	3	-5%	-14%	-1.5%
COc1ccc(Nc2nc3ccccc3nc2NS(=O)(=O)c2ccc(NC(C)=O)cc2)cc1	-8	-17%	-9%	-4.4%

Compound profiles, from the list above:
Results for COc1ccc(Nc2nc3ccccc3nc2NS(=O)(=O)c2ccc(NC(C)=O)cc2)cc1 : GLA inh pH 4.5 = -8; miR-21 FLuc = -17%; Rango release inh = -9%; Rango-impB inh = -4.4%
Results for CCNC(=O)C1CCCc2c1[nH]c1ccc(Cl)cc21 (configuration not stated) : GLA inh pH 4.5 = -11; miR-21 FLuc = -1%; Rango release inh = 4%; Rango-impB inh = -0.5%

Continuation:
SMILES	GLA inh pH 4.5	miR-21 FLuc	Rango release inh	Rango-impB inh
COc1ccc(C(=O)NCC(=O)N=Nc2c(O)n(Cc3ccccc3)c3ccccc23)cc1OC	2	-19%	-9%	0.1%
Cc1ccc(O)c(N=NC2=C(O)CC(C)(C)CC2=O)c1	-7	0%	1%	6.0%
CN(C)c1ccc(N=Nc2nc3ccccc3n2C)cc1	0	-32%	0%	-1.1%
CC(=O)C1=C(C)OC(N)=C(C#N)C1c1ccco1 (configuration not stated)	-4	-3%	-26%	?
CCOC(=O)N1CCC(=NNc2ccc(S(N)(=O)=O)cc2[N+](=O)[O-])CC1	-4	-4%	-17%	-4.8%
CCOC(=O)CCCCC(=O)c1[nH]c(=O)[nH]c1CSc1nnc2c3ccccc3n(C(C)C)c2n1	0	-1%	10%	-3.7%
CS(=O)(=O)c1ccc(-c2nnc(NC(=O)c3ccco3)o2)cc1	/	/	20%	0.7%
O=C(CC1C(=O)NC2CCCCC2N1C(=O)c1ccc([N+](=O)[O-])cc1)Nc1ccccc1 (configuration not stated)	3	3%	4%	-5.1%
Cc1c(OCc2ccccc2)c(=O)ccn1Cc1ccc(F)cc1	-3	9%	14%	0.3%
CC(=O)Nc1ccccc1-c1nnc(SCc2ccccc2Cl)[nH]c1=O	0	-1%	-3%	1.4%

Given as a markdown table: 2 of the compounds above.
| mol | GLA inh pH 4.5 | miR-21 FLuc | Rango release inh | Rango-impB inh |
| --- | --- | --- | --- | --- |
| CCOC(=O)N1CCC(=NNc2ccc(S(N)(=O)=O)cc2[N+](=O)[O-])CC1 | -4 | -4% | -17% | -4.8% |
| CN(C)c1ccc(N=Nc2nc3ccccc3n2C)cc1 | 0 | -32% | 0% | -1.1% |

The listing continues.
SMILES	GLA inh pH 4.5	miR-21 FLuc	Rango release inh	Rango-impB inh
CCc1ccc(NC2=CC(=O)C(=O)c3ccccc32)cc1	/	/	-39%	?
COc1cc(CNCCCN2CCOCC2)cc(Cl)c1OCC(=O)NC(C)(C)C	/	-9%	9%	-4.0%
O=C(c1ccc(Br)cc1)c1cc([N+](=O)[O-])ccc1N1CCOCC1	3	25%	-15%	0.0%
CN(C(=O)CN1C(=O)NC2(CCc3ccccc32)C1=O)C1CCS(=O)(=O)C1 (configuration not stated)	/	/	6%	?
COc1ccc(C(C)NC(=S)NC2CCCC2)cc1OC (configuration not stated)	2	-8%	?	?
CC(=O)N[C@@H]1c2c(ccc3ccccc23)OC[C@@H]1COC(C)=O	-14	1%	17%	0.0%
CCc1cc(=O)n2[nH]c(-c3ccccc3)c(-c3ccccc3)c2n1	/	22%	2%	3.6%
CCCc1cc(=O)[nH]c(SCC(=O)N2CCCc3ccccc32)n1	5	-2%	1%	-3.2%
N#CC(C#N)=Cc1c(N2CCN(c3ccccc3)CC2)nc2ccccn2c1=O	/	-36%	-15%	-2.5%
c1ccc2c(c1)nc(N1CCOCC1)c1ccccc12	6	1%	0%	-1.0%

Looked up above.
For Rango release inh, `CCc1ccc(NC2=CC(=O)C(=O)c3ccccc32)cc1` shows -39%
For Rango release inh, `CCCc1cc(=O)[nH]c(SCC(=O)N2CCCc3ccccc32)n1` shows 1%

Next section.
SMILES	GLA inh pH 4.5	miR-21 FLuc	Rango release inh	Rango-impB inh
CCCC1(C(=O)OCC)NC(c2ccc(O)cc2)C2C(=O)N(c3cccc(C(C)=O)c3)C(=O)C21 (configuration not stated)	/	1%	?	-2.6%
COc1cccc(NC(=O)Nc2nnc(N3CCCCC3C)s2)c1 (configuration not stated)	3	-48%	19%	0.2%
CCCCCc1nnc(NC(=O)C2=COCCO2)s1	/	/	12%	1.7%
O=C(O)CSc1cc(NS(=O)(=O)c2cccc([N+](=O)[O-])c2)c2ccccc2c1O	1	?	4%	-0.5%
CCOc1cc(C(=O)NN=C2CCCC2)cc(OCC)c1OCC	/	13%	2%	4.6%
CCN(C[C@H]1N[C@@](Cc2ccccc2)(C(=O)OC)[C@H]2C(=O)N(Cc3ccccc3)C(=O)[C@@H]12)S(=O)(=O)c1ccc(C(C)(C)C)cc1	/	/	14%	2.2%
CN1C(=O)S/C(=C/c2ccc(OCc3cccc(C(=O)O)c3)cc2)C1=O	/	-46%	1%	0.5%
O=c1c2c(nc3n1CCCCC3)-c1ccccc1CC21CCCC1	-25	6%	20%	3.3%
CCOC(=O)c1cnc(-n2nc(C)cc2C)nc1Nc1cccc(C(C)=O)c1	/	/	2%	-0.5%
S=C(NC1CCCC1)N1CCN(c2ccccn2)CC1	3	-12%	-14%	0.2%
Cc1ccc(COc2ccc3c(c2)OCO3)cc1	/	-73%	19%	-0.6%
CC(C)(C)c1ccc(C(=O)/C=C2\NC(=O)CS2)cc1	0	-8%	-6%	-2.1%
Nn1c(SCC(=O)NCCCc2ccccc2)nnc1-c1cccnc1	-13	-1%	9%	?
COc1ccccc1CN1CC(C(=O)N(C)CCCn2nc(C)cc2C)CCC1=O (configuration not stated)	/	0%	13%	0.2%
COC(=O)c1cc(OC)c(OC)cc1NC(=O)c1cccc(OC)c1OC	6	-7%	0%	-0.9%
CC1CCc2c(nc3nc[nH]n3c2=O)C1 (configuration not stated)	-5	-2%	-12%	2.5%
COc1cc(C(C(=O)NC2CCCC2)N(C(=O)c2snc(C(N)=O)c2N)c2ccccc2)cc(OC)c1OC (configuration not stated)	/	-2%	-5%	1.3%
COc1ccc(-c2csc(NC(=O)CN3C(=O)CCC3=O)n2)cc1	-8	3%	4%	-3.4%
O=C(COc1ccc(/C=C2/NC(=O)NC2=O)cc1)Nc1ccc(F)cc1	/	5%	0%	0.1%
Cn1cc(CNC(=O)CC2C(=O)NCCN2CC(C)(C)C)cn1 (configuration not stated)	8	-2%	-10%	0.3%
CCCCOc1ncnc2c1[nH]c1ccc(OC)cc12	2	-49%	2%	0.7%
O=C(CCCCCCCCC(=O)N1CCCCC1)N1CCCCC1	/	/	-14%	-1.2%
CS(=O)(=O)N(CC(=O)Nc1ccc2c(c1)OCCO2)c1ccc2c(c1)OCO2	-8	-18%	-9%	0.0%
CCn1nc(C)cc1C(=O)N1CCCC(C(=O)c2cccc(OC)c2)C1 (configuration not stated)	-3	2%	8%	1.8%
COc1cc(C(C(=O)NC2CCCC2)N(C(=O)Cc2cccs2)C2CC2)cc(OC)c1OC (configuration not stated)	12	3%	0%	4.5%
NC(=O)c1ccsc1NC(=O)COC(=O)c1ccc(Cl)cc1	/	/	10%	0.5%
C=CCc1c(C)nc(SCc2ccccc2)[nH]c1=O	/	-28%	1%	0.8%
CC(C)c1ccc(S(=O)(=O)N2CCN(C(C)C(=O)Nc3ccccc3-c3ccccc3)CC2)cc1 (configuration not stated)	6	-3%	13%	1.0%
Cc1c(C(=O)N2CCCCC2)oc2ccccc12	/	/	-1%	-0.6%
O=S(=O)(Nc1ccc(N2CCOCC2)cc1)c1cccs1	3	-16%	-6%	-1.1%

2 entries from above, set out differently:
compound,GLA inh pH 4.5,miR-21 FLuc,Rango release inh,Rango-impB inh
O=C(CC1C(=O)NC2CCCCC2N1C(=O)c1ccc([N+](=O)[O-])cc1)Nc1ccccc1 (configuration not stated),3,3%,4%,-5.1%
Cc1c(OCc2ccccc2)c(=O)ccn1Cc1ccc(F)cc1,-3,9%,14%,0.3%

Continued.
SMILES	GLA inh pH 4.5	miR-21 FLuc	Rango release inh	Rango-impB inh
COc1ccc(Oc2c(O)c3ccccc3n(C)c2=O)cc1	-6	0%	2%	-0.2%
CCN(CC(=O)Nc1c(F)cccc1F)C(=O)c1ccc(N2CCOCC2)c([N+](=O)[O-])c1	/	/	0%	-0.5%
CC1(C)OC(=CC=Nc2ccc(Cl)cc2)OC1(C)C	-7	-4%	?	?
O=C(Nc1cc(Cl)ccc1Cl)C1CC(=O)N(c2ccc(Br)cc2)C1 (configuration not stated)	-2	-7%	13%	-0.7%
CCN1N=C(c2ccccc2)Cn2c1nc1ccccc12	11	7%	?	?
N#CC(c1ccc(Cl)cc1)c1ncc(C(F)(F)F)cc1Cl (configuration not stated)	1	1%	17%	3.5%
O=C(NCCC1=CCCCC1)c1ccc(Cl)cc1	2	-21%	/	/
O=C(COc1ccc(Cl)cc1Br)NC(=O)NCc1ccccc1	-1	-9%	0%	?
CCO[C@H]1OC(C(=O)O)=C[C@@H](c2csc3ccccc23)[C@@H]1CCCO	-4	-3%	0%	5.7%

A portion of the library; the hit share may differ from the screen's.
